# HIV Env fusion: HIV envelope-mediated fusion inhibition. 360,000 tested, 1.1% active. inhibition, % at 12.3 µM. HeLa-JRFL Env/CEM21 cell fusion, luciferase. AID 651610;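 active = mean replicate inhibition score of at least 50 and every replicate individually at or above 50; inconclusive = only one of the two criteria met; inactive = mean below 50 and not all replicates reaching 50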;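 also: 0% = plate neutral controls and 100% = maraviroc near 300 nM; one replicate is shown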
# * marks the source's active call; other numbers are inactive results; ? = inconclusive; [ ] = dose if it differs, or a comment.
HIV Env fusion,SMILES
-6.8[16.7 µM],COc1ccc(NC(=O)N(C)C[C@@H]2Oc3cc(-c4cccc(C(=O)N(C)C)c4)ccc3S(=O)(=O)N([C@@H](C)CO)C[C@@H]2C)cc1
-22.2,CC(=O)OCC(=O)N1CCN(C(=O)C(=O)c2cccc(C(F)(F)F)c2)CC1
-21.2[16.7 µM],O=C(Cc1cccnc1)N1CC2(C1)[C@@H](c1ccccc1)[C@@H](CO)N2C(=O)C1CCCC1
9.5[16.7 µM],CC(C)NC(=O)Nc1ccc2c(c1)C(=O)N([C@H](C)CO)C[C@@H](C)[C@H](CN(C)C(=O)CCC(F)(F)F)OCCCC[C@@H](C)O2
-18.8,C[C@@H]1ON(C)[C@H]2C[C@H]3c4[nH]c5c(-c6cccc(Cl)c6)cccc5c4CCN3C(=O)[C@@H]12
-21.4[16.7 µM],C[C@@H]1CN([C@@H](C)CO)C(=O)c2c(c3ccccc3n2C)-c2ccccc2CO[C@@H]1CN(C)S(=O)(=O)c1cn(C)cn1
5.5[16.7 µM],COCCNC(=O)[C@H]1[C@H](CO)[C@H]2Cn3c(cccc3=O)[C@@H]1N2S(=O)(=O)c1ccccc1C
11.5[16.7 µM],CN1C(=O)c2cc(NC(=O)Nc3ccccc3F)ccc2OC[C@@H]2O[C@@H](CC(=O)NCCc3ccncc3)CC[C@@H]21
8.7[16.7 µM],C[C@H](CO)N1C[C@H](C)[C@@H](CN(C)Cc2cccc(C(=O)O)c2)OCc2ccccc2-c2c(n(C)c3ccccc23)C1=O
1.4[16.7 µM],O=C(c1ccccn1)N1CC2(C1)[C@@H](c1ccccc1)[C@H](CO)N2C(=O)C1CCC1
-4.5,COc1ccc(NC(=O)c2oc3ccc(S(=O)(=O)N4CCOCC4)cc3c2C)c(OC)c1
-11.8[16.7 µM],CS(=O)(=O)Nc1ccc2c(c1)[C@H]1C[C@@H](CC(=O)NC3CCCC3)O[C@@H](CO)[C@H]1O2
16.3[16.7 µM],C[C@H]1CN([C@@H](C)CO)C(=O)c2cc(NC(=O)Cc3ccccc3)ccc2O[C@H]1CN(C)Cc1ccc(C(=O)O)cc1
-21.8,COCc1[nH]nc2c1C(c1ccc(Br)cc1)N(c1ccc(OC)cc1)C2=O (stereo unspecified)
-14.4[16.7 µM],C/C=C/c1ccc2c(c1)O[C@H](CNC)[C@@H](C)CN([C@H](C)CO)S2(=O)=O
-16.6,COC(=O)C1=C(C)N(Cc2ccc(C(F)(F)F)cc2)C(=NCc2cc(OC)c(OC)c(OC)c2)NC1c1cccc(Cl)c1 (stereo unspecified)

# Pulled one by one from the entries so far (six):
HIV Env fusion,SMILES
1.4[16.7 µM],O=C(c1ccccn1)N1CC2(C1)[C@@H](c1ccccc1)[C@H](CO)N2C(=O)C1CCC1
16.3[16.7 µM],C[C@H]1CN([C@@H](C)CO)C(=O)c2cc(NC(=O)Cc3ccccc3)ccc2O[C@H]1CN(C)Cc1ccc(C(=O)O)cc1
-16.6,COC(=O)C1=C(C)N(Cc2ccc(C(F)(F)F)cc2)C(=NCc2cc(OC)c(OC)c(OC)c2)NC1c1cccc(Cl)c1 (stereo unspecified)
-11.8[16.7 µM],CS(=O)(=O)Nc1ccc2c(c1)[C@H]1C[C@@H](CC(=O)NC3CCCC3)O[C@@H](CO)[C@H]1O2
-4.5,COc1ccc(NC(=O)c2oc3ccc(S(=O)(=O)N4CCOCC4)cc3c2C)c(OC)c1
8.7[16.7 µM],C[C@H](CO)N1C[C@H](C)[C@@H](CN(C)Cc2cccc(C(=O)O)c2)OCc2ccccc2-c2c(n(C)c3ccccc23)C1=O

# Later entries
HIV Env fusion,SMILES
2.1[16.7 µM],C[C@@H]1CCCCO[C@H](CN(C)C)[C@@H](C)CN([C@@H](C)CO)C(=O)c2cc(NC(=O)C3CCCCC3)ccc2O1
-1.9,CCN=C1NC(c2cccc(F)c2)C(C(=O)OC)=C(C)N1Cc1ccccc1C(F)(F)F (stereo unspecified)
16.6[16.7 µM],CN(C)c1ccc2c(c1)[C@@H]1C[C@H](CC(=O)N3CCc4ccccc4C3)O[C@H](CO)[C@@H]1O2
11.7[16.7 µM],CCCN1C[C@@H](C)[C@@H](OC)CN(C)C(=O)c2ccc(NC(=O)c3ccc(F)cc3)cc2OC[C@H]1C
7.7,Cc1cc(NC(=O)Cc2cn(C)c3ccccc23)ccc1Nc1cccnc1
9.6[16.7 µM],O=C(C[C@@H]1C[C@H]2c3cc(NC(=O)C4CCC4)ccc3O[C@H]2[C@@H](CO)O1)NCc1ccccn1
-6.8[16.7 µM],C[C@@H](O)C#Cc1cnc2c(c1)C(=O)N([C@@H](C)CO)C[C@H](C)[C@H](CN(C)Cc1ccc(-c3ccccc3)cc1)O2
-3.3[16.7 µM],C[C@H](CO)N1C[C@H](C)[C@H](CN(C)Cc2ccc3c(c2)OCO3)OCc2cn(nn2)CCCC1=O

# Overlap with the part before: 2 compounds, followed by the next part.
HIV Env fusion,SMILES
-6.8[16.7 µM],C[C@@H](O)C#Cc1cnc2c(c1)C(=O)N([C@@H](C)CO)C[C@H](C)[C@H](CN(C)Cc1ccc(-c3ccccc3)cc1)O2
-3.3[16.7 µM],C[C@H](CO)N1C[C@H](C)[C@H](CN(C)Cc2ccc3c(c2)OCO3)OCc2cn(nn2)CCCC1=O
12.4[16.7 µM],CCCC(=O)Nc1ccc2c(c1)OC[C@@H](C)N(C(=O)CN(C)C)C[C@@H](C)[C@H](OC)CN(C)C2=O
-9.5,O=C(N[C@@H](Cc1cccnc1)C(=O)N1CCC[C@H]1C(=O)NC1CCCC1)C1CCCC1
20.0[16.7 µM],CN(C)c1ccc2c(c1)[C@@H]1C[C@H](CC(=O)N3CCc4ccccc4C3)O[C@@H](CO)[C@@H]1O2
-18.5[16.7 µM],COCC(=O)Nc1ccc2c(c1)C(=O)N(C)[C@@H]1CC[C@H](CC(=O)N3CCc4ccccc4C3)O[C@@H]1CO2
12.0[16.7 µM],O=C(C[C@H]1CC[C@H]2[C@@H](COC[C@@H](O)CN2CC2CCOCC2)O1)NCc1ccc(Cl)cc1
23.6,OC(c1ccccc1)(c1ccccc1)C1CCN(CCCOc2cc(F)cc(F)c2)CC1
-4.9[16.7 µM],C[C@@H](NC(=O)C[C@H]1CC[C@H](NC(=O)c2cccnc2)[C@H](CO)O1)c1ccccc1
14.5[16.7 µM],C[C@@H](NC(=O)C[C@H]1C[C@H]2c3cc(NC(=O)c4cccnc4)ccc3O[C@H]2[C@@H](CO)O1)c1ccccc1
-7.2[16.7 µM],CC(C)NC(=O)Nc1ccc2c(c1)C(=O)N(C)[C@H]1CC[C@H](CC(=O)Nc3ccccc3Cl)O[C@@H]1CO2
-5.0[16.7 µM],CC(C)NC(=O)N(C)C[C@@H]1OCCCC[C@@H](C)Oc2ccc(NC(=O)CCC(F)(F)F)cc2C(=O)N([C@H](C)CO)C[C@@H]1C
-26.9,Cc1ccc2nc(-c3ccc(F)cc3)c(Cc3ccsc3)n2c1
-3.9[16.7 µM],CN1C(=O)c2cc(NC(=O)c3ccc(F)c(F)c3)ccc2OC[C@@H]2O[C@@H](CC(=O)N[C@@H]3CCN(Cc4ccccc4)C3)CC[C@H]21
-4.7[16.7 µM],C[C@@H]1CN([C@H](C)CO)C(=O)c2cc(NC(=O)Cc3cn(C)c4ccccc34)ccc2O[C@H]1CN(C)Cc1ccncc1
2.8[16.7 µM],O=C(C1CCCC1)N1[C@H](CO)[C@@H](c2ccccc2)C12CN(CCC(F)(F)F)C2
10.0[16.7 µM],CNC[C@H]1Oc2ccc(NC(=O)Nc3ccccc3)cc2C(=O)N([C@H](C)CO)C[C@H]1C
8.5[16.7 µM],COc1ccc(NC(=O)Nc2ccc3c(c2)C(=O)N([C@@H](C)CO)C[C@@H](C)[C@H](CN(C)CC2CC2)OCCCC[C@@H](C)O3)cc1
15.5[16.7 µM],CC(C)COC(=O)N(C)C[C@@H]1OCc2ccccc2-c2c(n(C)c3ccccc23)C(=O)N([C@H](C)CO)C[C@H]1C
7.3[16.7 µM],CC(C)NC(=O)N(C)C[C@H]1Oc2ccc(N(C)C)cc2CC(=O)N([C@H](C)CO)C[C@@H]1C
2.5[16.7 µM],COc1ccc(S(=O)(=O)N(C)C[C@H]2OCCCC[C@H](C)Oc3ccc(NS(=O)(=O)c4cn(C)cn4)cc3C(=O)N([C@@H](C)CO)C[C@@H]2C)cc1
-7.1[16.7 µM],CNC[C@H]1Oc2ncc(C3=CCCC3)cc2C(=O)N([C@H](C)CO)C[C@H]1C
-0.8[16.7 µM],COC(=O)C[C@@H]1CC[C@@H]2[C@H](COc3ccc(NC(=O)Cc4cccs4)cc3C(=O)N2C)O1
-30.5[16.7 µM],C[C@H](CO)N1C[C@H](C)[C@@H](CN(C)C(=O)Nc2ccc3c(c2)OCO3)Oc2ccc(NS(=O)(=O)c3ccc(Cl)cc3)cc2CC1=O
14.4[16.7 µM],CO[C@H]1CC[C@H]2CCN(C)C(=O)[C@H](C)[C@H](OC)CN(C)C(=O)c3cccc(C#N)c3OC[C@H]1O2
1.3[16.7 µM],CCCN1C[C@@H](C)[C@@H](OC)CN(C)C(=O)c2cc(NC(=O)C3CCC3)ccc2OC[C@@H]1C
-90.1,C=CCN=C1NC(c2ccccc2)C(C(=O)OC)=C(C)N1Cc1ccccc1C(F)(F)F (stereo unspecified)
49.7[16.7 µM],C[C@H]1CN([C@@H](C)CO)C(=O)c2ccccc2-c2ccccc2CO[C@H]1CN(C)S(=O)(=O)c1ccc(C(F)(F)F)cc1
7.2[16.7 µM],COC(=O)[C@@H](NC(=O)CN=[N+]=[N-])c1ccccc1
-10.0[16.7 µM],CCCNC(=O)N[C@H]1CC[C@H](CC(=O)NC2CCC2)O[C@@H]1CO
8.2[16.7 µM],C[C@H](CO)N1C[C@H](C)[C@H](CN(C)S(C)(=O)=O)Oc2cc(C3=CCCC3)ccc2S1(=O)=O
2.5[16.7 µM],CNC[C@H]1OCCCC[C@H](C)Oc2ccc(NC(=O)NC(C)C)cc2C(=O)N([C@H](C)CO)C[C@@H]1C
10.2[16.7 µM],O=C(C[C@@H]1C[C@H]2c3cc(NC(=O)C4CCC4)ccc3O[C@H]2[C@@H](CO)O1)NCCc1ccccc1
-13.6[16.7 µM],COCCNC(=O)C[C@@H]1CC[C@@H]2[C@H](COC[C@@H](O)CN2C(=O)c2cc(Cl)cc(Cl)c2)O1
-4.1[16.7 µM],C[C@@H]1CN([C@H](C)CO)S(=O)(=O)c2ccc(-c3ccc(F)cc3)cc2O[C@H]1CN(C)C(=O)Nc1ccc(F)cc1
-10.6[16.7 µM],O=C(C[C@@H]1C[C@@H]2c3cc(NC(=O)C4CCOCC4)ccc3O[C@@H]2[C@@H](CO)O1)NCc1cc(F)ccc1F
7.2[16.7 µM],O=C(C[C@H]1C[C@@H]2c3cc(NC(=O)C4CCOCC4)ccc3O[C@@H]2[C@@H](CO)O1)NCc1ccc2c(c1)OCO2
-10.9[16.7 µM],Cc1noc(C)c1NC(=O)Nc1ccc2c(c1)C(=O)N([C@H](C)CO)C[C@@H](C)[C@@H](CN(C)Cc1ccc(C(F)(F)F)cc1)O2
1.7[16.7 µM],C[C@@H]1CN([C@@H](C)CO)C(=O)c2cc(NC(=O)c3ccccc3)ccc2O[C@@H](C)CCCCO[C@@H]1CN(C)C
-3.3[16.7 µM],COc1ccc(S(=O)(=O)Nc2cccc3c2O[C@@H](CN(C)C(=O)Nc2cccc4ccccc24)[C@H](C)CN([C@H](C)CO)C3=O)cc1
-5.5,CCCCOCC1CN(CCCC)S(=O)(=O)c2c(cccc2N2CCCC2)O1 (stereo unspecified)
14.9,CCCCCCCCN1C(=O)[C@@H](CC(=O)NCc2cccc3ccccc23)C[C@@]2(C(=O)OC)C1=C[C@H](C1CCCC1)O[C@@H]2C
?,C[C@@H]1CCCCO[C@@H](CN(C)Cc2ccc(C(F)(F)F)cc2)[C@H](C)CN([C@@H](C)CO)C(=O)c2cc(NC(=O)Cc3ccccc3)ccc2O1
-13.0[16.7 µM],COc1ccc2c3c(n(C)c2c1)[C@H](CO)N(C(C)=O)CC31CN(C(=O)C2CCOCC2)C1
2.2[16.7 µM],CO[C@@H]1CN(C)C(=O)c2ccc(NC(=O)C3CCOCC3)cc2OC[C@@H](C)N(C(=O)c2ccccc2)C[C@@H]1C
-6.6,Cc1ccccc1C(=O)N1CCN(C(=O)C(=O)c2cccc(C(F)(F)F)c2)CC1
-0.5,CCCCCCCCN1C(=O)[C@@H](CC(=O)NCCCN2CCCC2=O)C[C@@]2(C(=O)OC)C1=C[C@H](C1CCCC1)O[C@@H]2C
-10.5,CN(c1cccnc1)c1ccc(NC(=O)CCc2c[nH]c3ccccc23)cc1Br
51.2[16.7 µM],O=C(C[C@H]1CC[C@H]2[C@@H](COC[C@@H](O)CN2Cc2ccc(Oc3ccccc3)cc2)O1)Nc1nccs1
8.4[16.7 µM],C[C@@H]1CN([C@H](C)CO)C(=O)c2ccccc2-c2ccccc2CO[C@@H]1CN(C)S(=O)(=O)c1cccs1
-21.6[16.7 µM],COc1ccc2c3c([nH]c2c1)[C@@H](CO)N(C(=O)NC(C)C)CC31CCN(C(=O)c2cccnc2)CC1
17.1[16.7 µM],Cc1ccc(S(=O)(=O)N[C@H]2CC[C@@H](CCNC(=O)c3ccccc3F)O[C@@H]2CO)cc1
-30.3[16.7 µM],CCCNC(=O)N1CC2(C1)CN(Cc1cccc(OC)c1)[C@H](CO)c1[nH]c3cc(OC)ccc3c12
4.8,Cc1nnc(-n2cccc2)s1
-3.8[16.7 µM],C[C@@H]1CN([C@@H](C)CO)C(=O)Cc2cc(NS(=O)(=O)c3cn(C)cn3)ccc2O[C@H]1CN(C)C(=O)Nc1ccc(C(F)(F)F)cc1
-13.8[16.7 µM],CO[C@@H]1CN(C)C(=O)c2ccc(NC(=O)c3cccc(F)c3)cc2OC[C@@H](C)N(CC2CC2)C[C@@H]1C
-17.7,CC(=O)N1CCN(c2ccc(N3CCN(Cc4ccccc4)[C@H](C)C3)c(C)c2)[C@@H](C)C1
5.3[16.7 µM],C[C@H](CO)N1C[C@H](C)[C@H](CN(C)C(=O)c2ccncc2)OCCCC[C@H](C)Oc2ccc(NC(=O)C3CCCCC3)cc2C1=O
-5.7,COCCNC(=S)N1C[C@H]2CON(C)[C@H]2C[C@H]1c1ccccc1Br
-25.9[16.7 µM],CCCN1C[C@@H](C)[C@H](OC)CN(C)C(=O)c2cc(NS(=O)(=O)c3ccccc3)ccc2OC[C@H]1C

# High-throughput results as filed in PubChem BioAssay.

# Not all compounds are listed; the hit share may differ from the screen's.
